Assay outcomes (PubChem BioAssay)
Cruzain noTriton = qHTS Assay for Promiscuous and Specific Inhibitors of Cruzain (without detergent); purified cruzain, Z-FR-AMC fluorescence, no detergent; Potency, µM, without a hit: max response, negative = inhibition, most hits filed as inhibitors; 2.3% of 200,000 active; AID 1476, 2009; active = well fitted curve in the direction sought with a large enough effect; inconclusive = small, poorly fitted or top-dose-only effect, or another doubt; inactive = no such curve, though single readings can be large; an effect the other way counts as inactive or inconclusive;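 note: plate controls were enzyme without inhibitor for no effect and buffer without enzyme for full effect; nearly all actives have a fitted effect of over 40% in size; top concentration of the series not given in the record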
Target sequence (P25779 123-467 limits assumed): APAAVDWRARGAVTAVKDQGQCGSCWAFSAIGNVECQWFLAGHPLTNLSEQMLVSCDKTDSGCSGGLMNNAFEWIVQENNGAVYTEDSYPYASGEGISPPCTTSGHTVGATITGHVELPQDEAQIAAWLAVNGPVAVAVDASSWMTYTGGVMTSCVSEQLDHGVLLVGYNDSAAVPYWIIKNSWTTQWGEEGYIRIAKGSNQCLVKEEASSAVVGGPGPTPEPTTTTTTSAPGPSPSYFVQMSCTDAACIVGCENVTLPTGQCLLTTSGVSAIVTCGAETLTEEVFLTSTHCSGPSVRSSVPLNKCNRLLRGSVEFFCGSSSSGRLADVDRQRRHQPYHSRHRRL
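Purified cruzain at 1.5 nM, pre-incubated 15 min with compound at room temperature in 100 mM sodium acetate pH 5.5, 5 mM DTT, 0.00005% Triton X-100. Reaction started with 2 uM Z-FR-AMC; AMC fluorescence increase over 60 s gives rate.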
Cruzain inh Det = qHTS Assay for Promiscuous and Specific Inhibitors of Cruzain (with detergent). purified cruzain, Z-FR-AMC fluorescence, 0.01% Triton. Potency, µM, inactives show max response, negative = inhibition, usual class: inhibitors. 0.43% of 200,000 active; active = well fitted curve in the direction sought with a large enough effect; inconclusive = small, poorly fitted or top-dose-only effect, or another doubt; inactive = no such curve, though single readings can be large; an effect the other way counts as inactive or inconclusive;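 note: plate controls were neutral wells for no effect and buffer without enzyme for full effect; nearly all actives have a fitted effect of over 40% in size; top concentration of the series not given in the record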
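In this qHTS format, compounds are incubated with 1.5 nM cruzain for 15 min at room temperature before 2 uM Z-FR-AMC is added. Release of AMC is followed at 360/450 nm, and progress is taken as the 60 s fluorescence difference.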
StopGo reporter = High Throughput Screening for Foot and Mouth Disease Virus Antivirals; human cells with a luciferase reporter of 2A StopGo recoding; control for the full effect not named in the record; 1.2% of 410,000 active; Potency, µM (top dose mostly 57.9 µM), without a hit: top-dose signal change, negative = less light; AID 1159524, 2015; active = well fitted falling curve with a large enough effect; inconclusive = small, poorly fitted or top-dose-only effect; inactive = no such curve, though single readings can be large or run the other way; tested in HEK293T cells; note: % is set by controls: 0 for no effect and ±100 for the full control effect; nearly all actives have a fitted effect of over 45% in size; luciferase light after 4 h
MARV entry inh = qHTS for inhibitors of binding or entry into cells for Marburg Virus; Marburg virus pseudotyped entry inhibition, cell reporter; control for the full effect not named in the record; about a third of the inactives were read at about 46 µM; Potency, µM (doses to about 37.8 µM), without a hit: top-dose activity change, negative = inhibition, actives largely listed as inhibitors; 1.8% of 300,000 active; AID 540276, 2011; active = well fitted inhibition curve with a large enough effect; inconclusive = small, poorly fitted or top-dose-only effect, or effect the other way; inactive = flat fitted curve, though single readings scatter; tested in HEK293 cells; about a fifth of its hits are not listed in these tables; note: % is set by controls: 0 for no effect and ±100 for the full control effect; luciferase read-out
Lassa entry inh = qHTS for Inhibitors of binding or entry into cells for Lassa Virus; Lassa virus pseudotype entry inhibition, cell reporter; control for the full effect not named in the record; Potency, µM (series often up to 37.9 µM), for inactives: at the top dose activity change, negative = inhibition, most hits filed as inhibitors; 1.2% of 300,000 active; AID 540256, 2011; active means well fitted inhibition curve with a large enough effect; inconclusive means small, poorly fitted or top-dose-only effect, or effect the other way; inactive means flat fitted curve, though single readings scatter; tested in HEK293 cells; note: % is set by controls: 0 for no effect and ±100 for the full control effect; nearly all actives have a fitted effect of over 50% in size; luciferase read-out
NS1 inh = qHTS Assay for Inhibitors of Influenza NS1 Protein Function; S. cerevisiae slowed by influenza A NS1, growth recovery by OD600; Potency, µM (highest dose often 46.1 µM), for inactives: at the highest dose activity, positive = more growth; 0.4% of 270,000 active; note: actives are rising curves; nearly all actives have a fitted effect of over 50% in size
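OD600 was taken as the measure of yeast growth restored by compound in an NS1-expressing S. cerevisiae strain. Cells had been washed out of glucose medium and diluted 1:100 into galactose -URA medium, pH 6.0.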
SARS PLP yeast = qHTS of Yeast-based Assay for SARS-CoV PLP | AID 485353, 2010 | S. cerevisiae expressing SARS-CoV PLpro, growth rescue; control for the full effect not named in the record | 0.19% of 330,000 active | Potency, µM (doses to about 32.9 µM), inactives show at the top dose activity, positive = growth rescue; note: 0% is about no effect; nearly all actives have a fitted effect of over 55% in size; growth read by luminescence after 48 h
RE007 growth inh = qHTS Assay for Inhibitors of the HIV-1 protein Vpr. S. pombe RE007 Vpr strain, BacTiter-Glo ATP luminescence, 24 h; control for the full effect not named in the record. Potency, µM (doses to about 92.2 µM), without a hit: at the top dose activity change, negative = less growth. 0.21% of 360,000 active. AID 651644, 2012; active = well fitted falling curve with a large enough effect; inconclusive = small, poorly fitted or top-dose-only effect; inactive = no such curve, though single readings can be large or run the other way;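 note: % is set by controls: 0 for no effect and ±100 for the full control effect; nearly all actives have a fitted effect of over 50% in size; the assay follows cell death caused by Vpr and the record does not say whether a fall means rescue or toxicity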
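Fission yeast RE007 carrying one integrated HIV-1 vpr copy, seeded at OD 0.01 in PMG+AL medium with 23 nL pinned compound. Grown 24 h at 30 degrees; viability read by BacTiter-Glo luminescence after 5 min.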
Active calls of the source: *; ? = inconclusive; nt = no result given; & = joins results of further samples; [ ] = another dose, or the depositor's remark. Unless noted, calls come from the whole dose curve; as a rule, active means well fitted rising curve with a large enough effect; inconclusive means small, poorly fitted or top-dose-only effect; inactive means no such curve, though single readings can be large or run the other way. Potency is the fitted concentration of half-maximal effect.

#	SMILES	Cruzain noTriton	Cruzain inh Det	StopGo reporter	MARV entry inh
1	Cc1ccc(S(=O)(=O)C(C)C(=O)NCCS(=O)(=O)c2ccc(Cl)cc2)cc1 (stereo not given)	nt	nt	-2%	-8%[46.1 µM]
2	COCCCNC(=O)Cn1cc(C(C)=O)c2ccccc21	-5%	5.4%	-5%	?
3	N#CC1=C(N)C2=CCCC[C@H]2[C@H](c2ccccc2)C1(C#N)C#N	11%	-3.0%	?	0%
4	Cc1ccc(C(=O)Nc2ccc3oc(-c4cccnc4)nc3c2)c(Cl)c1	-8%	-6.4%	-9%	10%[46.1 µM]
5	CCc1ccc(CCC(=O)Nc2nccs2)o1	16%	2.1%	20%	17%
6	COC(=O)c1cnn(-c2ccccc2)c1/C=N/NC(=S)Nc1ccc(Cl)cc1	nt	nt	-22%	-1%
7	COc1cc2c(cc1O)C[C@H]1c3c(cc(O)c(OC)c3-2)CCN1C	-23%	-13%	-22%	nt
8	COCCn1c(SCC(=O)c2c[nH]c3ccccc23)nc2cc(C(=O)NCC(C)C)ccc2c1=O	-6%	1.0%	3%	nt

#	Lassa entry inh	NS1 inh	SARS PLP yeast	RE007 growth inh
1	-8%[46.1 µM]	nt	8%	6%
2	43%[14.3 µM]	5%	0%	14%
3	-20%	18%	-7%	-7%
4	22%[46.1 µM]	nt	nt	nt
5	23%	-2%	-10%	-19%
6	-21%	4%	-2%	34%
7	nt	nt	nt	-1%[18.4 µM]
8	?	nt	nt	nt

Next section
#	SMILES	Cruzain noTriton	Cruzain inh Det	StopGo reporter	MARV entry inh
9	COc1ccc(/C=N/OCC(=O)N(Cc2ccccc2)c2ccccc2C(=O)O)cc1	8%	-5.3%	2%	-3%
10	Cc1ccc(S(=O)(=O)CCC(=O)OCC(=O)N2CCc3ccccc32)cc1	nt	nt	-16%	3%
11	Cc1nc(N2CCOCC2)sc1C=O	nt	nt	-5%	nt
12	O=C(Nc1ccc2c(c1)C(=O)OC2)c1ccccc1Cl	nt	nt	24%	?
13	Cc1ccc(CNC(=O)CN(c2cc(C)cc(C)c2)S(=O)(=O)c2c(C)[nH]c(=O)[nH]c2=O)cc1	-11%	-0.4%	-13%	15%[46.1 µM]
14	O=C(NN=C1CCN(Cc2ccccc2)CC1)c1ccccc1	-3%	-4.3%	0%	-1%[46.1 µM]
15	Cc1ccc(S(=O)(=O)CC(=O)Nc2sc3c(c2C(N)=O)CCCC3)cc1	-28%	-10%	2%	nt
16	CS(=O)(=O)c1ccccc1-c1nnc(-c2ccc(Cl)cc2)o1	nt	nt	31%[activator]	3%[46.1 µM]

#	Lassa entry inh	NS1 inh	SARS PLP yeast	RE007 growth inh
9	3%	21%	16%	-4%
10	12%	4%	3%	-5%
11	nt	5%	0%	33%
12	0%[46.1 µM]	9%	1%	-11%
13	14%[46.1 µM]	nt	nt	nt
14	3%	0%	16%	1%
15	-3%[46.1 µM]	nt	nt	nt
16	13%	nt	-3%	1%

Remaining list, next part
#	SMILES	Cruzain noTriton	Cruzain inh Det	StopGo reporter	MARV entry inh
17	CCN(CC)CCN(C)Cc1ccc(Br)cc1	-18%	7.0%	nt	-38%
18	CCOC(=O)c1cc(NC(=O)c2ccco2)ccc1N1CCOCC1	nt	nt	16%	15%[46.1 µM]
19	O=C1C2C3C=CC(C4CC34)C2C(=O)N1c1cc(Cl)ccn1 (stereo not given)	nt	nt	2%	19%
20	COCCN(C(=O)C(=O)NC1CCCC1)C(C(=O)NC1CCCC1)c1ccccc1F (stereo not given)	nt	nt	28%	0%
21	COc1ccc2cc(C(=O)N(C)Cc3ccccc3)[nH]c2c1	nt	nt	16%	nt
22	Cc1nn(CCC#N)c(N)c1C1(O)C(=O)Nc2c(Cl)cc(Cl)cc21 (stereo not given)	nt	nt	-12%	-3%[46.1 µM]
23	Fc1ccc(C(Nc2ccc(Cl)c(C(F)(F)F)c2)c2nnc(-c3ccccc3)o2)cc1 (stereo not given)	?	-2.5%	-12%	nt
24	COCc1cc(C)nc(N2CCN(Cc3ccccc3)CC2)c1C#N	-12%	8.1%	-3%	-2%[46.1 µM]

#	Lassa entry inh	NS1 inh	SARS PLP yeast	RE007 growth inh
17	17%	9%	11%	6%
18	nt	-2%	-1%	-15%
19	-18%	1%	1%	12%
20	-28%	-1%	0%	-3%
21	nt	-4%	-1%	-6%
22	?	-2%	-3%	-3%
23	-1%[46.1 µM]	nt	nt	nt
24	-11%	-1%	21%	26%

The results go on:
#	SMILES	Cruzain noTriton	Cruzain inh Det	StopGo reporter	MARV entry inh
25	CN1CCN(S(=O)(=O)c2cccc(C(=O)NCCC3=CCCCC3)c2)CC1	nt	nt	-7%	?
26	O=C1CCCN1CCC1CCN(C2CC(=O)N(c3ccc(F)cc3)C2=O)CC1 (stereo not given)	5%	2.1%	-3%	1%
27	N#Cc1c(N2CCSCC2)nsc1-c1ccccc1Cl	nt	nt	4%	-28%[46.1 µM]
28	O=c1c2ccccc2nc(/C=C/c2ccccc2F)n1-c1ccccc1O	nt	nt	?	nt
29	CCc1nnc(NC(=O)c2ccc(COc3ccccc3Cl)o2)s1	nt	nt	-7%	13%[46.1 µM]
30	CC(C)COC(=O)n1c(SCC(N)=O)nc2ccccc21	nt	nt	-12%	nt
31	CCc1nnc(NC(=O)c2cccc(S(=O)(=O)N3CC(c4ccccc4)CC3=O)c2)s1 (stereo not given)	-2%	-3.6%	3%	nt
32	Cc1occc1-c1nnc(SCC(=O)Nc2nc(C(C)(C)C)cs2)o1	-6%	0.9%	-23%	?

#	Lassa entry inh	NS1 inh	SARS PLP yeast	RE007 growth inh
25	?	nt	1%	1%
26	-2%	-187%	nt	32µM*
27	?	-56%	-5%	8%
28	nt	9%	-6%	7%
29	7%	1%	4%	4%
30	nt	1%	0%	7%
31	nt	2%	-4%	8%
32	-22%	7%	-6%	6%

The list continues:
#	SMILES	Cruzain noTriton	Cruzain inh Det	StopGo reporter	MARV entry inh
33	COC(=O)c1sc(N)c(C(=O)OC)c1COC(=O)c1c(C)noc1C	-9%	-9.8%	-6%	?
34	Cc1cc(C#N)c(SCC(N)=O)nc1-c1ccc(F)cc1	nt	nt	-24%	14%[46.1 µM]
35	CCOc1ccc(N(C(C)=O)C2C=CS(=O)(=O)C2)cc1 (stereo not given)	-3%	0.9%	-19%	nt
36	COc1cc(OC)c(NC(=O)N2CCc3cc(S(=O)(=O)N4CCC(C)CC4)ccc32)cc1Cl	3%	-0.4%	-13%	-1%[46.1 µM]
37	O=C(O)CCn1c(=O)c2cccn2c2cccnc21	-5%	-4.2%	-15%	-3%[46.1 µM]
38	CCOc1ccccc1N(CC(=O)Nc1cc(OC)ccc1OC)S(=O)(=O)c1ccccc1	nt	nt	-15%	nt
39	COc1cccc(NC(=O)CCCn2c(=O)[nH]c3ccccc3c2=O)c1	0%	-2.7%	4%	?
40	COc1ccc(CNC(=O)Cc2c(C(=O)O)c(C)cn2C)cc1	3%	1.8%	-5%	nt

#	Lassa entry inh	NS1 inh	SARS PLP yeast	RE007 growth inh
33	?	1%	10%	-6%
34	-12%	nt	-4%	24%
35	nt	-3%	4%	-6%
36	?	nt	nt	nt
37	22%[46.1 µM]	nt	nt	nt
38	nt	17%	0%	2%
39	12%	-5%	-1%	5%
40	8%[46.1 µM]	nt	nt	nt

Following part:
#	SMILES	Cruzain noTriton	Cruzain inh Det	StopGo reporter	MARV entry inh
41	COc1ccc(-c2c(C)nn3c(N4CCC(C(=O)N5CCCCC5)CC4)cc(C)nc23)cc1OC	nt	nt	-15%	nt
42	Cc1ccccc1CSCCNC(=O)c1ccccc1	-13%	-3.3%	10%	20%
43	CN(C)S(=O)(=O)c1ccc2c(c1)c(=O)c(C(=O)NCCCN1CCCCCC1)cn2C	-12%	-7.7%	-8%	6%&6%
44	OCCC1CN(Cc2ccc(-c3ccco3)cc2)CCN1Cc1ccsc1 (stereo not given)	nt	nt	-19%	?
45	Cc1ccc(C)c(NC(=O)CSc2nnc(-c3n[nH]c4ccccc34)o2)c1	-2%	-1.4%	-17%	?
46	CSc1nc(N)nc(SCC(=O)Nc2cccc(F)c2)c1C#N	-5%	-0.5%	?	?
47	O=C(Nc1ccon1)c1csc2c1CCCC2	-13%	0.8%	18%	?
48	CC(C)(CC(=O)O)CC(=O)N1CCN(c2cc(C(F)(F)F)nc3ccccc23)CC1	nt	nt	-1%	nt
49	CC1CN(C2CCCCC2)c2nc3c(c(=O)[nH]c(=O)n3C)n2C1 (stereo not given)	-9%	4.5%	?	?
50	Cn1c2ccc(F)cc2c2nnc(NN)nc21	nt	nt	-23%	-21%[46.1 µM]
51	O=C(Nc1ccncc1)c1ccc2c(c1)OCCO2	5%	1.9%	-20%	-25%

#	Lassa entry inh	NS1 inh	SARS PLP yeast	RE007 growth inh
41	nt	19%&3%	0%	5%
42	-1%	-8%	2%	-13%
43	4%	-25%	3%	-10%
44	-11%[46.1 µM]	0%	0%	2%
45	2%	-2%	5%	-16%
46	?	4%	2%	nt
47	-1%	-6%	-5%	?
48	nt	8%	1%	10%
49	-14%	-2%	0%	19%
50	-20%	-6%	-5%	-25%
51	-18%	-10%	-9%	-11%

Whole records as entered above:
O=C(Nc1ccncc1)c1ccc2c(c1)OCCO2 is entered as Cruzain noTriton = 5%; Cruzain inh Det = 1.9%; StopGo reporter = -20%; MARV entry inh = -25%; Lassa entry inh = -18%; NS1 inh = -10%; SARS PLP yeast = -9%; RE007 growth inh = -11%
O=C(Nc1ccon1)c1csc2c1CCCC2 is entered as Cruzain noTriton = -13%; Cruzain inh Det = 0.8%; StopGo reporter = 18%; MARV entry inh = ?; Lassa entry inh = -1%; NS1 inh = -6%; SARS PLP yeast = -5%; RE007 growth inh = ?

The order is random; overall some 4.7% were active at least once.
